VACV mCherry inh: inhibitors of vaccinia virus infection (mCherry reporter signal); AID 720579; Potency, µM (highest dose often 36.5 µM), for inactives: at the highest dose activity change, negative = inhibition, most hits filed as inhibitors; Vaccinia virus mCherry reporter infection, fluorescence; about a quarter of the inactives have no number; 0.63% of 310,000 active; active = well fitted inhibition curve with a large enough effect; inconclusive = small, poorly fitted or top-dose-only effect; inactive = no such curve, though single readings can be large or run the other way; tested in A549 cells; note: nearly all actives have a fitted effect of over 35% in size; inactives centre near -10
Vaccinia Venus: vaccinia inhibition (Venus reporter); Potency, µM (doses to about 36.5 µM), inactives show at the highest dose activity change, negative = inhibition, most hits filed as inhibitors; 0.46% of 330,000 active; AID 720580; Vaccinia virus Venus reporter expression, fluorescence; active means well fitted inhibition curve with a large enough effect; inconclusive means small, poorly fitted or top-dose-only effect; inactive means no such curve, though single readings can be large or run the other way; tested in A549 cells; note: nearly all actives have a fitted effect of over 30% in size; inactives centre near -10
An asterisk follows results filed as active; i = inactive; ? = inconclusive; · = no result given; & = joins results of further samples; [ ] = another dose, or the depositor's remark. % is set by controls: 0 for no effect and ±100 for the full control effect; potency is the fitted concentration of half-maximal effect.

Second line of a record: VACV mCherry inh	Vaccinia Venus
Cc1c(OCC(=O)N(C)c2ccccc2)ccc2c3c(c(=O)oc12)CCC3
 : -12%	-2%
CCn1c(N2CCN(CC(=O)c3c(C)n(C)c4ccccc34)CC2)nc2c1c(=O)[nH]c(=O)n2C
 : ·	?
CCCCCC(=O)Nc1cccc(C2=NOC3(C2)C[C@@H](C(N)=O)N(C(=O)c2cc([N+](=O)[O-])cc([N+](=O)[O-])c2)C3)c1 (stereo not given in full)
 : i	-9%
CCC1CCCCN1S(=O)(=O)c1ccccc1[N+](=O)[O-] (stereo not given)
 : -4%	-1%
Cc1ccc(N/N=C(\C#N)C(=N)N2CCOCC2)cc1
 : i	-7%
N#CC1=C(SCc2ccccc2Cl)NC(=O)C(C(N)=O)C1 (stereo not given)
 : i	-5%
COc1ccc(C2=CC(c3c(C)nn(-c4ccccc4)c3Cl)n3nnnc3N2)cc1OC (stereo not given)
 : ·	?
N#Cc1cc2ccccc2nc1SCC(=O)NC1CC1
 : 7%	-15%
CSC(=S)NCc1cccnc1
 : ?	-13%
CCOc1ccc(Cn2c(C)nc([N+](=O)[O-])c2SCC(O)CCl)cc1[N+](=O)[O-] (stereo not given)
 : -1%	-11%
C[C@@H](NC(=O)/C(C#N)=C/c1ccc(O)c(O)c1)c1ccccc1
 : ?	-13%&-27%
COc1cccc(NC(=O)Cn2cnc3c(nc4n3CCCCC4)c2=O)c1
 : 8%	3%
COc1ccc(N2C(=O)CC(c3cc(OC)c(OC)c(OC)c3)CC2=O)cc1
 : -2%	-17%
CCOC(=O)CC1(NC(=O)C2CCC(=O)N(Cc3ccccc3OC)C2)CCCCC1 (stereo not given)
 : i	-14%
COc1cccc(/C=C/C(=O)Nc2ccc3c(c2)OCCO3)c1OC
 : ?	-19%
O=C(CCCn1cnc([N+](=O)[O-])n1)Nc1cccc(Cl)c1Cl
 : ?	?
O=C(NC1CCCC1)C(c1ccccc1)n1c(-c2ccc3c(c2)CCO3)nc2ccccc21 (stereo not given)
 : i	-11%
COc1cc(NC(=S)NN2CCN(C)CC2)cc(OC)c1OC
 : -1%	-9%
NC(=O)[C@@H]1CCCN1C(=O)c1ccc2nc(Cc3cccc(Cl)c3)oc2c1
 : -24%	-19%
CC(CCC(C)[n+]1cccc(Br)c1)[n+]1cccc(Br)c1 (stereo not given)
 : i	3%

One compound at a time, as listed above. Order of screens: VACV mCherry inh, Vaccinia Venus
Shown for `CCn1c(N2CCN(CC(=O)c3c(C)n(C)c4ccccc34)CC2)nc2c1c(=O)[nH]c(=O)n2C` → ·, ?
Shown for `CSC(=S)NCc1cccnc1` → ?, -13%
Shown for `CCCCCC(=O)Nc1cccc(C2=NOC3(C2)C[C@@H](C(N)=O)N(C(=O)c2cc([N+](=O)[O-])cc([N+](=O)[O-])c2)C3)c1` (stereo not given in full) → i, -9%
Shown for `COc1ccc(N2C(=O)CC(c3cc(OC)c(OC)c(OC)c3)CC2=O)cc1` → -2%, -17%

Next section:
Second line of a record: VACV mCherry inh	Vaccinia Venus
CCc1ccc(S(=O)(=O)c2nnn3c2nc(NCc2ccccc2OC)c2cc(Cl)ccc23)cc1
 : ?	?
CCOC(=O)C1CCN(S(=O)(=O)c2cc(F)ccc2OC)CC1
 : -4%	-2%
O=C(c1ccco1)N1CCN(S(=O)(=O)c2ccc(S(=O)(=O)NC3CC3)cc2)CC1
 : -3%	-14%
COc1cc(C(=O)COC(=O)C2CCN(c3ccc(C(F)(F)F)cn3)CC2)ccc1OC(F)F
 : -13%	-16%
O=C(Cc1ccccc1)N1CCN(Cc2cccnc2)CC1
 : 3%	6%
CCCCCC1CC(CC(=O)Nc2ccc([N+](=O)[O-])cc2)OC1=O (stereo not given)
 : -3%	-18%
CCC1C(c2cc(OC)c(OC)c(OC)c2)c2cc3c(cc2OC1N1CCCC1)OCO3 (stereo not given)
 : -9%	?
CCOC(=O)c1ccc(NC(=O)c2ccc3c(c2)C(=O)N(CC2CCCO2)C3=O)cc1 (stereo not given)
 : -3%	-4%
COc1ccc(OC)c(S(=O)(=O)Nc2cccc3ccc(O)cc23)c1
 : -15%	-17%
CCOC(=O)C1CCN(C(=O)CSc2n[nH]c(-c3ccc(OC)cc3)n2)CC1
 : -12%	-6%
CCOC(=O)C1=C(CSc2nc(CC)c(C)cc2C#N)OC(N)=C(C#N)C1c1ccccc1 (stereo not given)
 : ·	-30%
CCOn1c(=O)c(C)[n+]([O-])c2ccccc21
 : ·	-8%
CC(=O)c1ccc(NC(=O)C2Cc3ccccc3N2C(=O)c2ccccc2)cc1 (stereo not given)
 : -9%	-2%
CCC1CCCCN1C(=O)CSc1n[nH]c(-c2ccccc2)n1 (stereo not given)
 : -9%	-10%
COc1cc(CCC(=O)OCC(=O)NCc2ccc(Cl)cc2)cc(OC)c1OC
 : -2%	-4%
CC1(C(=O)NC23CC4CC(CC(C4)C2)C3)CC1(Cl)Cl (stereo not given)
 : -16%	-12%
COc1ccc(/C=C2\CCCc3c2nc2ccc(C)cc2c3C(=O)O)cc1O
 : i	9%
CN(CC(=O)Nc1ccc(Cl)cc1)C(=O)c1ccc(NS(=O)(=O)c2ccc3[nH]c(=O)[nH]c3c2)cc1
 : i	-10%
Cc1ccc(-c2nc3cc(NC(=O)c4cc5ccccc5o4)ccc3o2)cc1Cl
 : -12%	-7%
CN(NC(=O)c1ccccc1F)c1ccc([N+](=O)[O-])cn1
 : i[7.34 µM]	-1%[7.34 µM]

Ordered by SMILES length (lowest first): part of the list above.
Second line of a record: VACV mCherry inh	Vaccinia Venus
CCC1CCCCN1C(=O)CSc1n[nH]c(-c2ccccc2)n1 (stereo not given)
 : -9%	-10%
CN(NC(=O)c1ccccc1F)c1ccc([N+](=O)[O-])cn1
 : i[7.34 µM]	-1%[7.34 µM]
CN(CC(=O)Nc1ccc(Cl)cc1)C(=O)c1ccc(NS(=O)(=O)c2ccc3[nH]c(=O)[nH]c3c2)cc1
 : i	-10%

Further structures:
Second line of a record: VACV mCherry inh	Vaccinia Venus
Cc1cc(NC(=O)CSc2nc(=O)n3cccc(C)c3n2)no1
 : i	-11%
CCCOC(=O)c1ccc(Cl)c(NC(=O)c2ccc(-c3ccccc3)cc2)c1
 : i	-11%
COC(=O)CN1C(=O)[C@H]2[C@@H](C3CC3)N3C(=O)CN(Cc4ccccn4)C(=O)[C@@]3(Cc3ccccc3)[C@H]2C1=O
 : i	-3%
O=C(Nc1cccc(-c2nnn(CC(=O)N3CCc4ccccc4C3)n2)c1)C1CCC1
 : -10%	-2%
Cc1nc(NCCCO)c(C#N)c2c1COC(C)(C)C2
 : -11%	-11%
S=c1nc(-c2sccc2OCc2ccc(Cl)cc2Cl)[nH][nH]1
 : 2%	1%
O=C(CCc1ccccc1)NNC(=S)NC(=O)c1ccc(Cl)cc1
 : -20%	-7%
COc1cc2c(cc1OC)C(c1cc(-c3cc(Cl)ccc3Cl)oc1C)=NCC2
 : 1%	-9%
COc1cc(C(c2nnnn2C2CCCC2)N2CCc3ccccc3C2)ccc1O (stereo not given)
 : -14%	-18%
COc1cc(/C=C2\Oc3cc(O)ccc3C2=O)ccc1O
 : 36%[activator]	372%[activator]
Cc1cc(N2C(=O)c3ccccc3C2=O)n(C)n1
 : i	-14%
CCOc1ccccc1CNC(=O)Cn1nc(N2CCN(c3ccccc3)CC2)ccc1=O
 : -9%	-4%
CC(=O)N1c2ccc(S(=O)(=O)N3CCC(C(=O)N4CCCC(C)C4)CC3)cc2CC1C (stereo not given)
 : 4%	8%
CCOc1ccccc1NC(=O)Cn1nnc(C(=O)NCc2ccco2)c1N
 : ?	?
Cn1cnnc1SCC(=O)c1cc2ccccc2oc1=O
 : 0%	-3%
Cc1ccccc1N1C(=O)Cc2ccccc2C1=O
 : -15%	9%
N=c1c(C(=O)NCc2ccco2)cc2c(=O)n3ccccc3nc2n1CC1CCCO1 (stereo not given)
 : -15%	-4%
COCc1ccccc1C1=CC(=O)C[C@H](c2ccc(F)cc2)C1
 : -1%	-16%
COc1cccc(-n2c(SC)nnc2C2CCN(Cc3nc4ccccc4s3)CC2)c1
 : -18%	-9%
O=C(C1=C(Nc2ccccc2)c2ccccc2S(=O)(=O)N1)c1ccccc1
 : 5%	10%
COc1ccc(CCNC(=O)C(=O)NCC(c2ccco2)S(=O)(=O)c2ccc(C)cc2)cc1 (stereo not given)
 : -11%	-12%
CC(C)(C)NC(=O)c1ccc(Cn2cc(C(F)(F)F)ccc2=O)cc1
 : i	-3%
CCc1cccc(OCC(=O)Nc2ccccc2N2CCCC2)c1
 : -14%	-10%
Cc1ccc(OCc2cc(C(=O)N3CCN(C4CCCC4)CC3)no2)cc1C
 : -9%	-4%
COc1ccc(CCNC(=O)CCNC(=O)c2ccc(Cl)cc2)cc1OC
 : -15%	-4%
CCOC(=O)C(Cc1c(F)cccc1Cl)c1ccno1 (stereo not given)
 : -13%	3%
O=C(OC(C(=O)NC1CCCC1)c1ccc(F)cc1)c1ccno1 (stereo not given)
 : -15%	-3%
S=C(NCc1ccc(Cl)c(Cl)c1)Nc1ccc2c(c1)OCO2
 : -7%	-14%
CCOC(=O)c1c(NC(=O)c2ccc(S(=O)(=O)N(CC)CC)cc2)sc2c1CCCCC2
 : -16%	-11%
CCOC(=O)c1ccc2[nH]c3c(c2c1)CCCCC3=O
 : -18%	?
O=C(CNCc1cccs1)NC12CC3CC(CC(C3)C1)C2
 : -15%	-5%
CC(C(=O)Nc1ccc(C#N)cc1)N(C)Cc1cccs1 (stereo not given)
 : -13%	-14%
COc1ccc(CCNC(=O)CSc2nc(-c3ccc(OC)c(OC)c3)ccc2C#N)cc1
 : -15%	-20%
Cc1cccc(OCC(=O)NCCCNC(=O)c2cnccn2)c1
 : -15%	-13%
O=C1CCC(C(=O)N(Cc2cccs2)C2(C(=O)NC3CCCCC3)CCCCC2)N1 (stereo not given)
 : -1%	-2%
CC1=NNC(=O)C1CCC(=O)N/N=C(/C)c1ccc([N+](=O)[O-])cc1 (stereo not given)
 : i	-10%
CCOC(=O)CN(C#N)c1nc(C)cc(C)n1
 : i	-10%
CC1(C)Cc2cccc(OCC(=O)OCC(=O)Nc3ccccc3)c2O1
 : i	-7%
Cc1ccn2c(=O)nc(SCC(=O)N3CCC(Cc4ccccc4)CC3)nc2c1
 : -20%	-7%
C=CCc1cccc(/C=N/n2c(C)nnc2C)c1O
 : ·	-4%
COC(=O)CCCNS(=O)(=O)c1ccc2ccccc2c1
 : ·	-6%
CN1C=CC(=O)[C@@H](O)[C@H]1c1ccccc1Br
 : ?	-16%
C[C@@H]1NC(=O)c2cc([N+](=O)[O-])cc(I)c2NCCCC[C@@H](C(N)=O)NC(=O)[C@H](CCC(=O)O)NC1=O
 : i	-2%
COC(=O)c1ccccc1NC(=O)Cn1cnc2c1c(=O)n(C)c(=O)n2C
 : -15%	0%
CC1CCCN(CCCNC(=O)c2ccc(N3CCCC3=O)cc2)C1 (stereo not given)
 : -22%	-6%
CCN(CC)C(=O)Cn1cc(SCC(=O)NC2CCCCC2)c2ccccc21
 : -26%	-4%
CCOCC(=O)Nc1ccc([N+](=O)[O-])cc1Cl
 : i	2%
Cn1c(/C=C/c2ccccc2[N+](=O)[O-])nc2ccccc2c1=O
 : i	-19%
O=C(COC(=O)c1ccc(CSc2ccc(Cl)cc2)cc1)Nc1ccccc1
 : i	-5%
Cc1ccccc1S(=O)(=O)N(C)C[C@@H]1OCc2cn(nn2)CCCC(=O)N([C@H](C)CO)C[C@H]1C
 : ?	-6%

New compounds follow
Second line of a record: VACV mCherry inh	Vaccinia Venus
COc1ccccc1N(CC(=O)N/N=C(\C)c1ccccc1O)S(=O)(=O)c1ccc(C)cc1
 : ?	-22%
CCNC(=O)C1(C)CCCN(Cc2csc(-c3ccccc3)n2)C1 (stereo not given)
 : -14%	0%
CC(=O)Nc1ccc(N2C(=O)CSC2c2cccc([N+](=O)[O-])c2)cc1 (stereo not given)
 : 0%	5%
CCCCN(CC)CCNC(=O)C1CCCN(S(=O)(=O)c2cccc3nsnc23)C1 (stereo not given)
 : -4%	-9%&-2%
O=C(CC1SC(N2CCCCC2)=NC1=O)Nc1ccc(C(=O)Nc2ccccc2)cc1 (stereo not given)
 : -7%	-16%
O=C1CCCCN1CCC(=O)N1CCCC(N2CCN(c3cccc(Cl)c3)CC2)C1 (stereo not given)
 : i	-15%
O=C(NCCCNC(=O)c1ccccn1)c1ccc(Cl)cc1
 : -10%	-15%
COc1ccccc1-n1c(SC)nc2c(sc(=S)n2-c2ccccc2)c1=O
 : -1%	-6%
COc1ccc(Cc2nc3ccc(C(=O)NCC4CCOCC4)cc3o2)cc1OC
 : -6%	-12%
C=CCN(CC=C)C(=O)c1ccc(OC2CCN(S(=O)(=O)N(C)C)CC2)cc1
 : -11%	-27%
CN(C)c1cc[n+](CC(=O)Nc2ccccc2C(F)(F)F)cc1
 : -3%	-6%
Cc1ccccc1NC1=NC(=S)N(CC(N)=O)C12CCOC(C)(C)C2 (stereo not given)
 : i	5%
COc1cc(C(C)=O)ccc1COc1ccc(C(=O)O)cc1OC
 : -22%	-21%
COC(=O)c1ccsc1NC(=O)C1COc2ccccc2O1 (stereo not given)
 : -16%	-17%
O=C(c1cc2ccccc2oc1=O)N1CCSC1c1ccco1 (stereo not given)
 : -6%	-6%
CCOC(=O)c1c(-c2ccc(C)cc2)csc1NC(=O)/C(C#N)=C/c1ccc(O)c(OC)c1
 : -1%	20%
Cc1ccc(NC(=O)c2c(NC(=O)c3ccc(F)cc3)sc3c2CCCC3)cc1C
 : -2%	-8%
O=C(Nc1cccc(Cl)c1)Nc1ccnc(-c2cccnc2)n1
 : -24%	?

Rows were taken by chance. Share with any hit: about 0.87%.
